High-throughput results as filed in PubChem.
CDC25B CDK2 inh = human CDC25B-CDK2/CyclinA binding inhibition. P30305+P24941. HTRF CDC25B-CDK2/CyclinA binding, anti-His/anti-Flag; active compounds read high. z-score (concentration not given with the values). 94,000 tested, 0.72% active. AID 1259370;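 note: score is relative to mean and SD of negative controls; strong numbers were not always called active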
TAR Tat displ = HIV-1 TAR-Tat binding disruption; HIV-1 TAR RNA, Tat peptide displacement FRET; active compounds read high; z-score (concentration not given with the values); 100,000 tested, 0.6% active; AID 1259389;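 note: score is relative to mean and SD of negative controls; some compounds called inactive have numbers as strong as hits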
Starred values were filed as active, the others as inactive; x = not tested or not shown.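 Rule for the calls: active = z-score from 3 up in half or more of its runs; inactive = the rest.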

SMILES	CDC25B CDK2 inh	TAR Tat displ
O=C(C1CCCN(c2ncnc3c2nc2n3CCCCC2)C1)N1CCC(Cc2ccccc2)CC1 (configuration not stated)	x	0.15
Cn1c(=O)c(=O)n(C)c2cc(S(=O)(=O)CCC(=O)NCc3cccs3)ccc21	-1.53	2.32
CCOC(=O)c1sc(=S)n2c1[nH]c(=O)c1ccc(C(=O)OC)cc12	x	3.58
CCOc1ccc(C2NC(=O)CCC2[N+](=O)[O-])cc1 (configuration not stated)	1.2	0.88
COc1ccnc(CS(=O)c2nc3cc(OC(F)F)ccc3[nH]2)c1OC (configuration not stated)	x	0.37
O=S(=O)(c1cccc2nsnc12)N1CCN(c2cc(-c3ccc(F)cc3)ncn2)CC1	x	1.07
O=C(NNC(=O)c1ccc(Cl)cc1Cl)c1csc(-c2cccnc2)n1	-1.44	x
CCOC(=O)c1c(N)sc(C(=O)Nc2ccccc2)c1C	-0.4	x
CSc1nnc(S/C(C(C)=O)=C(/C)O)s1	16*	x
O=c1[nH]ccn(-c2ccccc2)c1=O	-1.94	2.16
O=C1CCCc2cc(S(=O)(=O)N3CCN(C4CCCC4)CC3)ccc2N1	x	-0.06
O=c1[nH]c2ccc(S(=O)(=O)N3CCN(c4ccccc4Cl)CC3)cc2[nH]c1=O	1.36	x
O=C1CSC(c2ccncc2)N1Cc1ccc(F)cc1 (configuration not stated)	-0.61	x
COc1ccc(-n2ncc3c2ncn2nc(COc4ccc(Cl)cc4)nc32)cc1	0.46	2.44
CC1(C)CC(=O)C2=C(C1)Nc1[nH]c(=O)[nH]c(=O)c1C2c1ccc(Cl)cc1 (configuration not stated)	-0.38	x
CSc1ccc(CCNc2nc(-c3ccccc3)no2)cc1	x	0.84
CCCN1CCN(c2cc(NCCCC(=O)O)c3c4c(onc24)-c2ccccc2C3=O)CC1	-2	-5.83
CCN(CC)S(=O)(=O)c1ccc2nc(NC(=O)CC(C)C)sc2c1	x	1.31
CCn1nc(C)c(CCC(=O)O)c1C	x	1.42
CC(C)(C)c1cc(S(=O)(=O)CCc2ccccn2)cc(C(C)(C)C)c1F	-1.73	2.12
CC(C)c1nn2c(=O)cc(COC(=O)COc3ccc(F)cc3)nc2s1	x	0.26
CCN1CCN(C(c2cccs2)C(C)NS(=O)(=O)c2ccc(C)cc2)CC1 (configuration not stated)	-0.83	x
CCN(Cc1ccccc1)C(=O)c1noc2c1CSc1ccccc1-2	-0.91	1.9
COc1ccc(C2=C(C)C(=NCc3ccc(C)cc3)NS2(=O)=O)cc1	0.07	0.88
O=S(=O)(Nc1ccccc1Cl)c1ccccc1	-1.2	-1.13

Compound profiles, from the list above. Screens in order: CDC25B CDK2 inh	TAR Tat displ
Listed for CSc1nnc(S/C(C(C)=O)=C(/C)O)s1 : 16*	x
Listed for O=S(=O)(c1cccc2nsnc12)N1CCN(c2cc(-c3ccc(F)cc3)ncn2)CC1 : x	1.07
Listed for O=C1CSC(c2ccncc2)N1Cc1ccc(F)cc1 (configuration not stated) : -0.61	x
Listed for O=c1[nH]ccn(-c2ccccc2)c1=O : -1.94	2.16
Listed for Cn1c(=O)c(=O)n(C)c2cc(S(=O)(=O)CCC(=O)NCc3cccs3)ccc21 : -1.53	2.32

(more compounds)
SMILES	CDC25B CDK2 inh	TAR Tat displ
CCS(=O)(=O)N(C(=O)c1ccco1)c1ccc2c(c1)c(C(=O)OC)c(C)n2S(=O)(=O)CC	-0.49	2.28
CCOC(=O)c1c(C)oc2nc(C)nc(Nc3cc(OC)ccc3OC)c12	x	1.77
CCOC(=O)CN1C(=O)C(O)(CC(=O)c2cccs2)c2ccccc21 (configuration not stated)	-0.85	0.31
CC(=O)N1CCN(CC(O)Cn2c3ccccc3c3ccccc32)CC1 (configuration not stated)	-2.27	1.74
O=C1CCC(=O)N1CNc1c(F)cccc1F	-1.17	x
CC1=Nc2cc(C(=O)NC(C)C)ccc2Sc2ccccc21	-2.14	0.22
O=C(CSCc1cc(=O)n2[nH]cnc2n1)Nc1ccccc1Cl	x	1.21
CCC(=O)NCCc1cc2c(OC)ccc(OC)c2[nH]c1=O	-1.73	x
O=C(Nc1ccc(Cl)cc1)OCCS(=O)(=O)c1ccc(C(F)(F)F)cn1	-1.31	x
CCCS(=O)(=O)c1ncc(Cl)c(C(=O)Nc2sc3c(c2C(=O)OC)CCC3)n1	-2.02	2.93
CC(C)(C)C1CCc2c(sc3nc(CCC(=O)N4CCOCC4)[nH]c(=O)c23)C1 (configuration not stated)	x	0.43
COc1ccc(OC)c(C(=O)CN2CCN(S(=O)(=O)c3ccc(Br)cc3)CC2)c1	x	0.4
CC1=Nc2ccccc2-c2nnc(SCc3ccc(C)cc3)nc2O1	-1.18	3.08
COc1ccc(-n2c(C)cc(CNC(=O)NCC3CCCO3)c2C)cc1 (configuration not stated)	x	-2.93
CCS(=O)(=O)N1CCCc2ccc(NS(=O)(=O)c3c(C)c(C)cc(C)c3C)cc21	x	-0.06
COc1ccc(Cn2c(CO)cnc2SCc2cc(C)ccc2C)cc1	x	0.31
COc1cc(NC(=O)c2cnn3c4c(cnc23)C(=O)CC(C)(C)C4)cc(OC)c1	x	0.2
O=C(Nc1ccc(S(=O)(=O)N2CCOCC2)cc1)c1nn(-c2ccc(Cl)cc2)ccc1=O	-0.79	-0.51
O=C(O)CNc1nc(-c2ccccc2)c2cc(Br)ccc2n1	-1.2	0.51
Cc1nc(C(=O)Nc2ccc3nsnc3c2)cc2c1[nH]c1ccccc12	-0.5	0.2
O=C(NCCn1nc(-c2ccc(F)cc2)ccc1=O)c1ccc(Br)cc1	x	0.36
COc1cccc(-n2c(N)c(C(=O)Nc3cc(OC)ccc3OC)sc2=S)c1	x	-0.27
CCOC(=O)c1c(C)oc2ccc(OCc3ccc(F)cc3Cl)cc12	-2.76	-0.13
CC1(C)CC(=O)c2cnc(NC(=O)CSc3ccc(Cl)cc3)nc2C1	-2.21	2.93
Cc1cc(C)n(CC(O)COc2ccc(F)cc2)n1 (configuration not stated)	-2.06	-0.7

Arranged by count of non-hydrogen atoms (smallest number first): four of the compounds above.
SMILES	CDC25B CDK2 inh	TAR Tat displ
Cc1cc(C)n(CC(O)COc2ccc(F)cc2)n1 (configuration not stated)	-2.06	-0.7
O=C(CSCc1cc(=O)n2[nH]cnc2n1)Nc1ccccc1Cl	x	1.21
CCOC(=O)c1c(C)oc2ccc(OCc3ccc(F)cc3Cl)cc12	-2.76	-0.13
CC(C)(C)C1CCc2c(sc3nc(CCC(=O)N4CCOCC4)[nH]c(=O)c23)C1 (configuration not stated)	x	0.43

Returning to the listing, repeating the 3 entries before the break.
SMILES	CDC25B CDK2 inh	TAR Tat displ
CCOC(=O)c1c(C)oc2ccc(OCc3ccc(F)cc3Cl)cc12	-2.76	-0.13
CC1(C)CC(=O)c2cnc(NC(=O)CSc3ccc(Cl)cc3)nc2C1	-2.21	2.93
Cc1cc(C)n(CC(O)COc2ccc(F)cc2)n1 (configuration not stated)	-2.06	-0.7
Cc1ccc(C)c(N2C(=O)N(Cc3ccccc3Cl)C3CS(=O)(=O)CC32)c1 (configuration not stated)	x	-0.19
Nc1ncnc2c1ncn2CCc1ccccc1	-2.26	x
Cc1cccc(Nc2nc3ccccc3n3c(C)nnc23)c1C	-1.08	0.77
CCc1cc2c(cc3c(=O)n(CC(=O)NC4CCCC4)nc(CC)n32)s1	-8.43	x
O=C(Nc1nccs1)c1cccc(N2C(=O)c3ccccc3C2=O)c1	-3.21	x
O=C(NC(c1cccs1)c1ccc2cccnc2c1O)C1CCCCC1 (configuration not stated)	0.26	x
CC(C)c1ccc(CNc2ncc(Br)cn2)cc1	-2.65	1.21
CC1=CCC2CC1C(c1ccccc1)OC2(C)C (configuration not stated)	-1.82	0.64
CCn1c(SCC(O)c2ccccc2)nc2ccccc21 (configuration not stated)	0.12	-0.04
Cc1ccc(-c2noc(C3CCN(S(=O)(=O)c4ccc(C)cc4)CC3)n2)cc1	-1.65	1.62
Cc1nn(CC(=O)NCCSCc2ccco2)c(C)c1Br	-1.91	x
CCOC(=O)C(C)n1c(=O)c(C(F)(F)F)nc2cc(C)c(C)cc21 (configuration not stated)	1.78	0.52
Cc1ccc(-c2csc3[nH]c(=S)n(-c4ccccc4)c(=O)c23)o1	-1.05	x
CSc1cccc(NC(=O)c2cnn(-c3ccc(F)cc3)c2-n2cccc2)c1	x	0.24
Cc1cc2c(Oc3ccc(F)cc3Cl)ncnc2s1	x	0.89
Cc1ccc2oc(-c3cccc(NC(=O)c4sc5ccccc5c4Cl)c3C)nc2c1	-2.87	x
Cc1ccc(-c2nn3cnnc3s2)cc1	-1.17	0.6
O=C1C2CCCCC2C(=O)N1CC(=O)N1c2ccccc2CCc2ccccc21 (configuration not stated)	-0.1	0.09
CCC(C)NC(=O)Cn1cc(S(=O)(=O)N2CCCC2)c(S(=O)(=O)N2CCCC2)c1 (configuration not stated)	x	1.86
Cn1c(CNC(=O)CSc2nc(-c3ccco3)nc3cc(=O)[nH]n23)nc2ccccc21	x	0.92
NC(=O)c1cccc(-c2cccc(OC(=O)NC3CCCCC3)c2)c1	x	1.11
O=S(=O)(c1ccc(S(=O)(=O)N(Cc2ccccn2)CC2CCCO2)cc1)N1CCCCC1 (configuration not stated)	-1.53	1.37
O=C(Oc1ccc(C(F)(F)F)cc1[N+](=O)[O-])c1ccccc1	-1.16	x
COc1ccc(-c2nn3cnnc3s2)cc1	-0.14	0.82
Cc1cc2n(n1)C(c1ccc(O)cc1O)Nc1c(C)cccc1-2 (configuration not stated)	-3.22	1.75

(cont.)
SMILES	CDC25B CDK2 inh	TAR Tat displ
COc1ccc(-c2nnc3ccc(SCc4ccccn4)nn23)cc1OC	-0.16	x
COc1ccc(OC)c(C2=NOC(C(=O)NCc3ccco3)C2)c1 (configuration not stated)	-1.18	1.23
N#Cc1c(NC(=O)CCCC(=O)O)sc2c1CCCC2	-2.19	0.12
O=C(CSc1nnc(-c2ccncc2)o1)NCCC1=CCCCC1	-1.28	0.53
O=C(O)c1cccc(S(=O)(=O)N2CCc3ccccc3C2)c1	-1.18	x
Cc1ccc(O)c(Nc2nnc(-n3nc(C)cc3C)c3ccccc23)c1	x	1.84
CC1(C)Cc2c(C#N)c(SCc3ccccc3)nc(N3CCOCC3)c2CO1	-0.31	1.06
CN(Cc1ccccc1)c1nc2c(c(=O)n(C)c(=O)n2C)n1Cc1ccc(F)cc1	-0.57	x
CCn1ccc(C(=O)NC2=C(C#N)CCC2)n1	-0.58	1.89
Cc1csc2sc(C=NCc3cccs3)c(C)c12	-1.82	x
Clc1ccc(-c2noc(-c3cccnc3NCC3CCCO3)n2)cc1 (configuration not stated)	-1.21	0.91
CC1CCCCC1NC(=O)C1CCN(S(=O)(=O)c2ccc3c(c2)NC(=O)CO3)CC1 (configuration not stated)	x	1.94
Cc1ccc(NC(=O)C2C3C=CC4(O3)C2C(=O)N(C(C)C)C4C(=O)NC2CCCCC2)cc1Cl (configuration not stated)	-0.59	1.46
Cc1c(Cl)cccc1Nc1nc2ccccc2n2nnnc12	-1.72	-1.8
COc1ccc(Oc2cccc(Cl)c2CNS(=O)(=O)c2ccc(OC)cc2)cc1	-0.12	x
CSc1ccc(CCNS(=O)(=O)c2ccc3c(c2)CCCC(=O)N3)cc1	x	-0.53
Cc1ccc(Nc2nc3ccccc3c3nncn23)c(Cl)c1	-2.95	-0.67
CCCCOc1ccc2c(C)c(C)c(=O)oc2c1	-1.61	x
COc1ccc(-c2nc3n(n2)C(c2ccc4c(c2)OCO4)C2=C(CCCC2=O)N3)cc1 (configuration not stated)	0.66	x
Cc1ccc(-c2cc(C(=O)N(Cc3ccc(C(C)C)cc3)C3CCS(=O)(=O)C3)no2)cc1F (configuration not stated)	0.65	-0.09
C=CCn1c(=O)c(C(=O)NCCN(CC)CC)c(O)c2ccccc21	x	-0.61
CCCCOC(=O)C1=C(C)NC2=C(C(=O)CC(C)(C)C2)C1c1ccc2c(c1)OCO2 (configuration not stated)	-1.49	-0.12
O=C(O)C1CCCNC1 (configuration not stated)	1.29	-0.08
Cc1cc(C)n(-c2cc(N3CCN(c4ccccc4F)CC3)ncn2)n1	x	0.23
Cc1nnc(N2CCCC(C(=O)N3CCc4ccccc4C3)C2)c2nn(-c3ccccc3)c(C)c12 (configuration not stated)	x	0.36

The listing continues.
SMILES	CDC25B CDK2 inh	TAR Tat displ
O=[N+]([O-])c1ccc(/C=C/C2Oc3ccccc3C3CC(c4cccs4)=NN23)o1 (configuration not stated)	1.48	13*
CC(C)Nc1nc(NC(C)C)nc(Oc2ccc(=O)n(-c3ccccc3)n2)n1	-0.93	2.2
CCc1nnc(NC(=O)CSc2nc3c(c(=O)n2CCOC)SCC3)s1	-1.65	0.49
CC(C)c1ccc(-c2noc(SCC(=O)N(C)C3CCCCC3)n2)cc1	x	1.83
COc1ccc(Br)cc1C1C2=C(CCCC2=O)Nc2nc3ccccc3n21 (configuration not stated)	0.76	x
Cc1nc(SCC(=O)Nc2c(C)n(C)n(-c3ccccc3)c2=O)n[nH]1	0.7	1.63
CC1(C)c2ccccc2-n2c1cc(O)c(-c1ccccc1)c2=O	-0.92	x
CC1=C(c2ccc(C)c(C)c2)S(=O)(=O)NC1=NCCCN1CCOCC1	-0.17	-0.19
CC1=C(c2ccc(F)cc2)S(=O)(=O)NC1=NC(C)c1ccccc1 (configuration not stated)	x	0.17
COCCCNc1ncnc2c1sc1nc(-c3ccccc3)c3c(c12)CC(C)(C)OC3	-3.05	1.68
Cc1ccc(N2C(=O)CC(N3CCN(Cc4ccc5c(c4)OCO5)CC3)C2=O)cc1Cl (configuration not stated)	-0.91	0.8
Cc1csc2nc(CSc3nnc(-c4cccc(F)c4)n3C)cc(=O)n12	x	0.11
CC1=C(C(=O)OC(C)C)C(c2cccc3ccccc23)C2=C(CCCC2=O)N1 (configuration not stated)	-1.37	0.21
COC(=O)C1=NNC2C(=O)N(c3cccc(C(F)(F)F)c3)C(=O)C12 (configuration not stated)	-0.27	x
Cc1ccc(-n2nnc(-c3nc(-c4ccc(Cl)cc4)no3)c2N)c(C)c1	x	1.1
